HCMV UL50-53 inh: disrupts HCMV UL50-UL53 complex binding; AID 1918969; HTRF UL50-UL53 interaction, normalized percent inhibition; hit rate 0.15% among 190,000; inhibition, % (test concentration not listed);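 active = both replicates at 50% or more, plus weaker picks with an unusually low signal ratio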;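 also: stock transfer was 100 nL into about 20 µL; 0% = negative control wells and 100% = wells with untagged competitor protein; inactives centre near -12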
Sa growth inh: inhibitors of Staphylococcus aureus growth at 42 °C; S. aureus RN4220 growth, OD600, 20 h; hits give low values; relative growth, % (concentration not given with the values); hit rate 0.53% among 170,000;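 active = growth at 42 °C up to 50% and 20 or more points under that at 30 °C, or under 10% at both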;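 also: 300 nL library stock went into each well; scaled to the means of positive and negative controls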
GIV Gai3 FP: blocks GIV peptide binding to rat Galpha-i3; P08753; Galpha-i3/FITC-GIV peptide fluorescence polarization, 90 min; hits give low values; scaled: aluminum fluoride 0%, vehicle 100%; percent of control (FP), % (concentration not given with the values); hit rate 0.42% among 210,000; AID 1224905;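 active = replicate mean at 85% of control or lower, very high polarization wells dropped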;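 also: wells of about 15 µL received 100 nL stock; the first replicate is given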
Target sequence (P08753 whole entry, looked up): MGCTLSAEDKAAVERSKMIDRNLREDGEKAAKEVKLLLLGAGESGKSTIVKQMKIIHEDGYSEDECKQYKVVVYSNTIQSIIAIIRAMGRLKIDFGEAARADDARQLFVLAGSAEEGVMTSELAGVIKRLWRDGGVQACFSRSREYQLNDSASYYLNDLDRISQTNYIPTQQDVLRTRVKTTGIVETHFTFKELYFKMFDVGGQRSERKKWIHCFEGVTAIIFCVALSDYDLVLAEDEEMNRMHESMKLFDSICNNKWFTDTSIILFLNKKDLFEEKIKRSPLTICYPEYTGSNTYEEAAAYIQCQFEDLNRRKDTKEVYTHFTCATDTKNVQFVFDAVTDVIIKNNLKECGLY
Sa growth inh second temp: second read-out of Sa growth inh, no call of its own (marks repeat the call); relative growth, %; measured here: growth at 30 °C;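 optical density after 20 h as mean of two plates; 100% = untreated growth and lower means inhibition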
* marks the source's active call; other numbers are inactive results; . = no result given; & = joins results of further samples.

SMILES	HCMV UL50-53 inh	Sa growth inh	Sa growth inh second temp	GIV Gai3 FP
CC(C)(C)c1cc(C#N)cc(C(C)(C)C)c1O	-9	78	94	95
O=C(Cc1csc2ccccc12)NCc1ccccc1F	-2	114	97	102
CCCN1CCSC1=Nc1ccccc1F	-6	92	91	.
CC(=O)OCc1ccccc1Sc1ccccc1C(=O)NCc1ccccc1	-4	107	95	105
O=C(O)CCCn1cnc2sc3c(c2c1=O)CCCC3	-23	101	86	100
Cc1nc(=O)c(-c2ccccc2)c(C)n1CC1CCCO1 (stereo unspecified)	-24	86	96	.
O=C(NCCc1nnc2ccc(N3CCCC3)nn12)c1ccccc1	.	104	90	100
O=C(O)c1cc(-c2cccs2)nc2ccccc12	-26	95	93	.
O=C(CO)c1ccc2cc[nH]c2c1	-8	100	91	102
Cc1cccc(Cn2cc3c(=O)n(CC(=O)Nc4ccc(C)c(F)c4)nc-3c3cc(F)ccc32)c1	.	91	91	101
Cc1ccc(/C=N/NC(=O)c2ccccc2NS(=O)(=O)c2cccs2)o1	-54	99	86	.
O=C(COC(=O)c1ccccn1)NC1CCCc2ccccc21 (stereo unspecified)	-22	100	92	.
CCOC(=O)CC(=O)CSc1nc2ccccc2c(=O)n1-c1ccc(C(=O)NCCOC)cc1	.	123	89	106
CCn1c(=O)n(CC)c2cc(NC(=O)CSc3nc4ccccc4[nH]3)ccc21	-10	113	99	100
Cc1ccc(CN2CCC(CNS(=O)(=O)c3cc(-c4cc(C)no4)ccc3C)C2)cc1 (stereo unspecified)	-16	86	49	98
COc1ccc(S(=O)(=O)c2cnc3cc4c(cc3c2N2CCC(C(N)=O)CC2)OCCO4)cc1	2	114	102	103
CC(Oc1ccc(C(C)C)cc1)C(=O)Nc1onc2c1CCCC2 (stereo unspecified)	-15	.	.	104
Oc1c(C(c2ccc(Cl)cc2Cl)N2CCN(Cc3ccccc3)CC2)sc2nc(-c3ccco3)nn12 (stereo unspecified)	.	76	35	100
O=C(CN1C(=O)C2CCCCN2c2ccc(C(=O)N3CCCC3)cc21)NCc1ccc(F)cc1Cl (stereo unspecified)	-14	.	.	105
CN1C(=O)/C(=C(/C#N)C(N)=O)c2ccccc21	-20	67	50	.
Brc1ccc(N=Cc2ccc3c(c2)OCCO3)cc1	0	102	92	.
CCOC(=O)c1cncc(C#CCOC(=O)Nc2cc(Cl)cc(Cl)c2)c1	-2	94	87	100
CCc1ccccc1N1CC(c2nc3ccccc3n2CCOc2ccc(Cl)c(C)c2)CC1=O (stereo unspecified)	5	14	1	108
CS(=O)(=O)N(Cc1ccccc1)c1ccccc1C(=O)Nc1cccc(Br)c1	-19	104	79	.
Cc1nn(C(=O)c2ccc(Br)cc2)c(C)c1Sc1ccccc1	-11	100	91	102
Cc1ccc(C=C2C(=O)OC(C)(C(C)(C)C)OC2=O)o1 (stereo unspecified)	9	96	94	104
CCOC(=O)c1oc2cc(OCc3ccc(C(=O)OC)o3)ccc2c(=O)c1-c1ccc(C(=O)OC)o1	-1	.	.	103
CSc1ncccc1C(=O)OCc1c(C)noc1C	-1	92	97	.
CS(=O)(=O)NCCc1csc2nc(-c3cccc(F)c3)nn12	-26	.	.	103
Cc1ccc2nc(C(C)O)[nH]c2c1 (stereo unspecified)	.	118	86	104
COc1cc2c(=O)n(CCc3ccccc3)c(=O)n(CC(=O)Nc3ccccc3)c2cc1OC	2	91	92	103
CC(C)N(CCC#N)C(=S)Nc1ccc(S(=O)(=O)N2CCCCC2)cc1	-16	97	93	104
CCC(O)c1ccc2c(=O)c(-c3ccccc3F)coc2c1 (stereo unspecified)	-8	94	108	.
COc1ccccc1CNC(=O)CC(c1ccc(OC)c(OC)c1)N1Cc2ccccc2C1=O (stereo unspecified)	.	157	89	97
CCCCOc1ccc(-c2cc3c(SCC)nccn3n2)cc1	-9	.	.	102
COc1ccccc1N1CCN(C(=O)c2cnc3sccn3c2=O)CC1	7	.	.	102
Cc1nc(N)[nH]c(=O)c1Br	1&-9	93	88	109&97
CCOC(=O)C1CCCN(S(=O)(=O)c2ccc(N3CCCCS3(=O)=O)cc2)C1 (stereo unspecified)	.	92	93	94
O=C1C=C(Nc2ncn[nH]2)CC(c2cccs2)C1 (stereo unspecified)	.	96	75	105
COc1cccc(CNC(=O)CCc2nnc3n(CC(C)C)c(=O)c4ccccc4n23)c1	-21	95	82	102
CO/C([O-])=N/c1c[n+](-c2ccc(C)cc2)no1	-97	108	80	.
CCN1CCN(C(=O)CS(=O)Cc2nc(-c3ccccc3)oc2C)CC1 (stereo unspecified)	.	102	84	100
N#Cc1cnc2c(-c3ccc(Cl)cc3)cnn2c1N	-26	.	.	94
CCCC(=O)Nc1cc(C)nn1-c1ncnc2c1cnn2-c1ccc(F)cc1	4	.	.	97
CCS(=O)(=O)N1CCC(N2CCN(Cc3ccc(C)cc3)C(=O)C2=O)CC1	-14	.	.	99
CS(=O)(=O)c1ccccc1-c1nnc(NC(=O)C2CCCCC2)o1	-18	102	88	106
CCOC(=O)N1CCN(C(=O)CCc2nc3ccccc3[nH]2)CC1	1	104	94	110
COc1ccc(NC(=O)C2CCN(S(=O)(=O)c3cc(-c4noc(C)n4)sc3C)CC2)c(OC)c1	-8	.	.	99
O=C1Cc2ccccc2C(=O)N1c1ccc(Br)cn1	9	121	96	.
Cc1ccc(-n2nc(C)c3c(C)cc(=O)n(CC(=O)Nc4cccc(C)c4C)c32)cc1	.	90	99	100
CC(C)n1cnc2cc(NCc3ccc(Br)cc3)ccc21	.	116	61	108
Nc1cc2ccccc2cc1C(=O)O	-2	89	82	.
Cc1cccc(-c2nnc(SCc3cc(=O)n4c(C)csc4n3)o2)c1	-38	.	.	101
O=C(O)c1ccc(NC(NC(=O)c2ccco2)C(=O)c2ccccc2)cc1 (stereo unspecified)	-11	88	84	105
COc1ccc(O)c(C=Nc2ccc3c(c2)OCO3)c1	-31	100	84	.
CCc1nc2cccnc2n1-c1ccc(CC(=O)Nc2ccccc2Cl)cc1	.	91	108	109
O=C(c1ccco1)N1CCN(C(=O)C2CCN(c3nc4ccccc4n3Cc3ccc(F)cc3)CC2)CC1	-9	97	81	99
Cn1ccsc1=NC(=O)/C=C/c1ccccc1F	-45	86	94	.
COc1ccc(N(C)C(=O)Cc2c(C(=O)O)n(C)c3ccccc23)cc1	11	.	.	101
Fc1ccccc1N1CCN(c2nnc(C(F)(F)F)c3nnn(Cc4ccccc4)c23)CC1	-31	85	91	96

Next part
SMILES	HCMV UL50-53 inh	Sa growth inh	Sa growth inh second temp	GIV Gai3 FP
CC(C)CC(=O)OCc1cc(=O)n2nc(C3CCCCC3)sc2n1	.	77	92	104
CCN(CC)c1ccc(NC(=O)C(C)(C)C)cc1	-13	91	90	103
CCCc1ccc(-c2ccc(C(=O)Oc3ccc(Br)cc3)cc2)nc1	3	109	108	111
CCN1CCN(C(c2ccc(OC)cc2)c2c(O)cc(C)n(Cc3ccco3)c2=O)CC1 (stereo unspecified)	.	101	87	97
CCCNC(=O)CCCN1C(=O)CCn2nc(-c3cccn3C)cc21	.	87	89	110
Cc1cc(C)c(S(=O)(=O)N2CC(C)OC(C)C2)c(C)c1 (stereo unspecified)	-22	89	84	104
COc1ccccc1CNC(=O)C1CCN(c2ncnc3c2sc2nc(C)cc(-c4ccccc4)c23)CC1	-7	.	.	102
Cc1ccc(N2C(=O)C3C4C=CC(CNC(=O)OCc5ccccc5)(O4)C3C2=O)cc1 (stereo unspecified)	-11	113	94	102
CCOC(=O)c1c(S(=O)(=O)N(C)c2ccc(C)cc2)c(C)n(C)c1C	-29	96	89	106
O=C1c2ccccc2C(=O)N1CC1NCCc2ccccc21 (stereo unspecified)	0	105	96	105
CC(=O)N1CCC(N(Cc2ccco2)C(=O)Nc2ccc(Br)cc2F)CC1	.	113	110	105
COC(=O)c1sccc1N	-20	94	86	105
Cn1c(=O)n(Cc2ccc(Cl)cc2)c2ccccc21	-9	91	97	99
Cc1cc(C)c(NC(=O)c2cn3c4c(c(N5CCN(C)CC5)c(F)cc4c2=O)OCC3C)c(C)c1 (stereo unspecified)	-29	71	72	.
CCOc1ccc(-n2nc(C(=O)NC(C)C)c3ccccc3c2=O)cc1	0	101	95	.
Cc1cccc(N2CCN(C(=O)C3CCC(CNS(=O)(=O)c4ccc(Br)s4)CC3)CC2)c1C (stereo unspecified)	-6	112	89	99
CSCCC(=O)Nc1cc(S(C)(=O)=O)ccc1Cl	-9	101	95	.
Fc1ccccc1-c1ccc(CNCCCn2ccnc2)o1	-14	.	.	106
O=C(NCc1cccnc1)c1cnn2c(C(F)F)cc(-c3ccccc3)nc12	-47	101	55	117
CCOC(=O)c1c(NC(=O)Cc2csc(C)n2)sc(C)c1C	-5	.	.	112
N#Cc1ccccc1NC(=O)COC(=O)c1ccccc1	-7	89	84	.
O=C(NC1CC1)c1cc(S(=O)(=O)N2CCCCC2)ccc1N1CCOCC1	29	99	87	.
O/N=C/c1ccc2ccccc2c1	-48	114	81	.
CNC(=O)CN(c1ccccc1)S(=O)(=O)c1ccc(OC)cc1	-2	102	89	100
CC(C)(C)c1ccc(OCCC(=O)Nc2ccc(N3CCOCC3)cc2)cc1	-19	105	90	.
CN1CCSc2ccc(C(=O)NCc3ccc4c(c3)OCO4)cc21	4	105	105	106
O=C(CSc1c2c(nc3ccccc13)CCC2)Nc1ccc(F)cc1F	-12	102	96	103
Cc1ccccc1NC(=O)c1c(C)oc2ccc(O)c(CN3CCN(C)CC3)c12	-5	97	92	98
CC1C=CCC2C(=O)N(c3cccc(O)c3)C(=O)C12 (stereo unspecified)	.	108	74	100
O=S1(=O)C[C@H](NCCC2=CCCCC2)[C@@H](S(=O)(=O)c2cccs2)C1	11	.	.	103
COc1ccc(-c2noc(CCC(=O)NC(C)C)n2)cc1OC	-8	90	86	100
CCC(CC)C(=O)Nc1cccc(C(=O)NC(C)(C)C)c1	-18	98	91	108
CCN(CC)C(=O)/C(C#N)=C/c1cc(O)c(O)c([N+](=O)[O-])c1	-73	85	68	106
O=C1c2cccc3cccc(c23)C(=O)N1CCN1CCN(S(=O)(=O)c2ccc(F)cc2)CC1	-39	.	.	101
O=C(Cc1ccccc1)Nc1ccccc1CO	9	97	105	105
COC(=O)CSc1ncnc2c1cnn2-c1ccccc1	-6	105	94	103
O=C1/C(=C/c2ccccc2)Oc2c1ccc(O)c2CN1CCOCC1	-26	94	83	280
O=C(Nc1cc(Oc2ccccc2)cc([N+](=O)[O-])c1)c1cc2n(n1)C(C(F)(F)F)CC(c1cccs1)N2 (stereo unspecified)	5	.	.	99
CCOc1ccc(CNC2CCCc3ccccc32)cc1 (stereo unspecified)	-16	91	78	.
COc1ccc(OC)c(S(=O)(=O)NCc2ccc3c(c2)CCN3C(=O)c2cccc(C)c2)c1	.	86	66	105

5 compounds already listed, sorted by heavy-atom count, rising:
SMILES	HCMV UL50-53 inh	Sa growth inh	Sa growth inh second temp	GIV Gai3 FP
CNC(=O)CN(c1ccccc1)S(=O)(=O)c1ccc(OC)cc1	-2	102	89	100
O=S1(=O)C[C@H](NCCC2=CCCCC2)[C@@H](S(=O)(=O)c2cccs2)C1	11	.	.	103
O=C(NC1CC1)c1cc(S(=O)(=O)N2CCCCC2)ccc1N1CCOCC1	29	99	87	.
Cc1ccccc1NC(=O)c1c(C)oc2ccc(O)c(CN3CCN(C)CC3)c12	-5	97	92	98
O=C1c2cccc3cccc(c23)C(=O)N1CCN1CCN(S(=O)(=O)c2ccc(F)cc2)CC1	-39	.	.	101

More compounds follow:
SMILES	HCMV UL50-53 inh	Sa growth inh	Sa growth inh second temp	GIV Gai3 FP
O=CN1CCN(C(=O)c2ccccc2)CC1	2	79	90	.
Brc1ccc(-c2cc3c(N4CCN(c5ccccc5)CC4)nccn3n2)cc1	8&-4	96	104	109&102
CN(C)S(=O)(=O)c1ccc(-c2nc(C#N)c(N3CCOCC3)o2)cc1	26	.	.	105
CCOC(=O)C(=NCc1ccco1)NNc1cccc(C(F)(F)F)c1	-20	104	80	.
CC1(C)CC(N=Cc2ccccc2O)CC(C)(C)N1	-18	90	84	.
COc1ccccc1NC(=O)n1ncc2cc(Cl)ccc21	-18	.	.	105
COc1ccc(-c2cc(OC(=O)c3cccc(Cl)c3)c3c(C)oc(C)c3c(=O)c2)cc1	-19	118	105	104
COc1ccc(NC(=O)CSc2nccn2Cc2ccco2)cc1OC	.	103	95	99
C1=Cc2nonc2C2C=C(c3ccccc3)N=C12 (stereo unspecified)	-13	67	58	.
CCOC(=O)c1cn(Cc2ccc(Cl)cc2Cl)c2cc(C)nn2c1=O	-5	102	94	108
CCOc1ccccc1OCCCn1c(-c2ccc(Cl)cc2)nc2ccccc2c1=O	4	99	92	106
CCOC(=O)c1ccc(-c2ccc(/C=C3/C(=O)Nc4ccccc43)o2)cc1	-8	101	89	112
COc1cccc(Cn2c(C)c(C3CCN(S(=O)(=O)c4cccc5nsnc45)CC3)c3ccccc32)c1	6	.	.	103

Fetched by compound from the entries so far (3):
SMILES	HCMV UL50-53 inh	Sa growth inh	Sa growth inh second temp	GIV Gai3 FP
CC1(C)CC(N=Cc2ccccc2O)CC(C)(C)N1	-18	90	84	.
COc1ccccc1NC(=O)n1ncc2cc(Cl)ccc21	-18	.	.	105
CN(C)S(=O)(=O)c1ccc(-c2nc(C#N)c(N3CCOCC3)o2)cc1	26	.	.	105

Assay outcomes deposited in PubChem BioAssay by ICCB-Longwood Screening Facility, Harvard Medical School.
